Mtb growth – M. tuberculosis H37Rv growth inhibitors, H37Rv strain (AID 1626). 220,000 compounds, 0.95% hits. inhibition, % at 10 µM; hits with a dose series show IC50 in µM. M. tuberculosis H37Rv growth inhibition; higher % means a stronger effect;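 active = confirmed in a dose series; inconclusive = inhibition above 80% but not taken into the dose series; inactive = below 80% or under 30% at every dose of the series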;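 note: bacteria incubated seven days before Alamar blue readout; 0% = bacteria only wells and 100% = bacteria with antibiotic wells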
Arbovirus anti – antivirals against arbovirus infection, primary screen, cell-based, full library, 10K replicate subset; arbovirus infection cell-based antiviral screen; inhibition, % at 10 µM; 200,000 compounds, 0.37% hits;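 active = inhibition from about 30%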;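 note: bluetongue infection of BSR cells; cell survival read as ATP light after 72 h; 0% = infected wells without compound and 100% = uninfected wells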
Mtb betalactam – beta-lactam sensitization of Mtb H37Rv, H37Rv | M. tuberculosis H37Rv growth with meropenem, percent inhibition; hits of this screen are not shown here | inhibition, % at 25 µM | 330,000 compounds, 0.27% hits;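 active = about 74% or more and at least 40 points above the plate without the antibiotic, then above 30% in a dose series; inconclusive = first-round hits that could not be retested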;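 note: growth measured after seven days incubation then overnight dye step; 0% = bacteria only wells and 100% = bacteria with antibiotic; twin plates without the antibiotic show which effects depend on it; some results filed as inactive read as strong as hits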
RecA intein inh – Mtb RecA intein splicing inhibitors, primary screen, biochemical, fluorescence, HTS | 290,000 compounds, 0.75% hits | AID 2221, 2009 | cell-free RecA intein splicing | Protein RecA (Mycobacterium tuberculosis (strain ATCC 25618 / H37Rv)), P9WHJ3 | inhibition, %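 (about 9 µM by stock and volumes)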; in the data active = inhibition above about 30%; inconclusive = no clear call, values can overlap the other calls;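 note: 0% = vehicle wells and 100% = reference inhibitor control wells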
Target sequence (P9WHJ3 whole entry, looked up): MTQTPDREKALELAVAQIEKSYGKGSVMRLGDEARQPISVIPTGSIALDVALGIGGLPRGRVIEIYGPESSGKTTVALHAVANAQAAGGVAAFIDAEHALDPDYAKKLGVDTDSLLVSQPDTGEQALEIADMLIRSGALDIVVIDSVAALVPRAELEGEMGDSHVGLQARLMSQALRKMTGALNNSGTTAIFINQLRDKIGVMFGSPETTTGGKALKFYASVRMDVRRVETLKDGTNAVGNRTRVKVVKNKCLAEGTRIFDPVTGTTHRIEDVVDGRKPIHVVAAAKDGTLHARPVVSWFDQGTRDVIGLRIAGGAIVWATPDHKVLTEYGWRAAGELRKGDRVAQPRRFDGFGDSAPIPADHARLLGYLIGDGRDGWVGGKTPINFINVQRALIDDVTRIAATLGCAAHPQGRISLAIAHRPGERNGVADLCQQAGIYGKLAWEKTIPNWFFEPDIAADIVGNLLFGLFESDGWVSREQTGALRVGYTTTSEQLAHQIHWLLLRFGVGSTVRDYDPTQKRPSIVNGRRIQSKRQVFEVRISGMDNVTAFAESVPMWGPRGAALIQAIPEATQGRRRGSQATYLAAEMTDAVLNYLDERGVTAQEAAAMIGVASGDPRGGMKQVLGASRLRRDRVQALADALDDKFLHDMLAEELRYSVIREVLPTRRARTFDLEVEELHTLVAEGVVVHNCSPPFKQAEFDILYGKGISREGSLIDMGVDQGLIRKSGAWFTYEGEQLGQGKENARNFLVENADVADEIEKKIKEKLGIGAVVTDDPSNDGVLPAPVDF
YopH PTP inh – YopH tyrosine phosphatase inhibitors, primary screen, biochemical, fluorescence Ex485/Em525; YopH tyrosine phosphatase [Yersinia enterocolitica]; inhibition, %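 (about 10 µM by stock and volumes)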; 140,000 compounds, 0.16% hits; AID 898, 2007;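 active = inhibition of 50% or more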;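 note: controls were vehicle for no effect and minimum signal wells for full effect; inactives centre near -20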
Arbovirus anti repeat – recorded beside Arbovirus anti, whose call it bears; inhibition, %; measured here: 10K subset replicate screen; many hits read low in the repeat;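 first of two repeat runs on a subset; 0% = infected and 100% = uninfected wells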
Active calls of the source: *; ? = inconclusive; / = not tested or not shown. Not all compounds are listed; count on the stated rates, not on these rows.

SMILES | Mtb growth | Arbovirus anti | Mtb betalactam | RecA intein inh | YopH PTP inh | others
COc1ccccc1Nc1ncc(C(C)=O)c(C)n1 | -5% | 9 | -13 | 0.2 | -31
O=C(Nc1ccc(Br)cc1)N1CCCCCC1 | / | / | 4 | 1.4 | /
COc1ccc(/C=C2\COc3ccccc3C2=O)c(OC)c1 | / | / | 55 | 0.5 | /
Cc1cc(Cl)c(S(=O)(=O)Nc2ccc(S(=O)(=O)N3CCOCC3)cc2)cc1OCC(N)=O | -5% | 2 | 2 | 0.5 | /
CCOC(=O)c1ccc(CNS(=O)(=O)c2c(C)ccc3nsnc23)o1 | -9% | 7 | 0 | -1.0 | -65
O=c1cc(CSc2nnc(C3CC3)n2Cc2ccccc2)nc2sccn12 | 0% | -3 | -2 | -0.6 | /
CCCCOCCCNCc1cccn1CCN1CCOCC1 | / | / | 0 | 3.9 | /
CCOc1ccccc1CN1CCN(Cc2nc3ccccc3s2)CC1CCO (centres undefined) | 1% | -8 | -8 | -1.4 | /
O=C1NC(=O)/C(=C/c2ccc(O)cc2)S1 | 7% | -8 | 78 | -1.7 | /
COc1ccc(-c2[nH]ncc2CN2CCC(OCc3ccccn3)CC2)c(F)c1 | -4% | / | -3 | 0.3 | /
CCCC1=C(C(=O)OCC)C(c2ccco2)n2ncnc2N1 (centres undefined) | -2% | / | -4 | 1.5 | /
O=C(c1ccccc1)N1CCCCC(S(=O)(=O)c2ccc3ccccc3c2)C1=O (centres undefined) | -12% | 4 | 48 | 3.4 | -2
Cc1oc2c(CN(C)C)c(O)ccc2c(=O)c1-c1cscn1 | -1% | 1 | 4 | -4.7 | -11
CN(N)C(=S)NCc1ccccc1 | -2% | 2 | ? | -1.4 | 1
CCN1CCN(C(=O)c2ccc3c(c2)N(Cc2ccc(F)cc2)C(=O)c2ccccc2S3=O)CC1 (centres undefined) | -3% | 7 | ? | 1.3 | -26
Cc1ccc(C(=O)CCNc2cccc(Br)c2)o1 | 11% | 2 | 93 | 3.0 | -4
Oc1ccc(Br)cc1/C=N/n1c(C2CCCCC2)n[nH]c1=S | / | / | ? | -2.7 | /
N#C/C(=C/c1ccc(Oc2ccc([N+](=O)[O-])cn2)cc1)C(=O)N1CCOCC1 | -3% | 2 | 0 | 3.2 | -12
CC1CCN(Cc2nnnn2CCCC(=O)NCCc2cnn(C)c2)CC1 | / | / | 0 | -3.4 | /
O=C(CSc1ncnc2c1nnn2Cc1ccccc1)NC1CCCC1 | 11% | 16 | -7 | 13 | /
COc1ccc(CN(CCN2CCOCC2)C(=O)c2c(F)cccc2F)cc1OC | 8% | 10 | 3 | 1.1 | -40
O=C(NC(=S)Nc1ccccc1Cl)c1cncc(C#Cc2ccccc2)c1 | -2% | / | -3 | -5.0 | /
CCC(C(=O)N1CCOCC1)n1nc(C)c2sc3ccccc3c2c1=O (centres undefined) | / | / | -11 | 2.4 | /
COc1ccc(C)cc1NC(=O)C1C2C=CC(C2)C1C(=O)O (centres undefined) | -15% | -2 | 0 | -4.0 | 16
CCN(CC)c1ccc(C2C3CCCCC3(O)CCN2C(=O)c2cccs2)cc1 (centres undefined) | -7% | 1 | -6 | -2.8 | -9

Molecules listed so far that have a thiophene ring, fused or not, in the order listed:
SMILES | Mtb growth | Arbovirus anti | Mtb betalactam | RecA intein inh | YopH PTP inh | others
CCC(C(=O)N1CCOCC1)n1nc(C)c2sc3ccccc3c2c1=O (centres undefined) | / | / | -11 | 2.4 | /
CCN(CC)c1ccc(C2C3CCCCC3(O)CCN2C(=O)c2cccs2)cc1 (centres undefined) | -7% | 1 | -6 | -2.8 | -9

Following part
SMILES | Mtb growth | Arbovirus anti | Mtb betalactam | RecA intein inh | YopH PTP inh | others
Cc1cc(C)c2c(C(C)(C)C)nn(-c3ccccc3)c2n1 | / | / | 7 | 5.8 | /
Cc1ccccc1NC(=O)COc1nsnc1N1CCOCC1 | -7% | 1 | 3 | 0.0 | -40
CCCn1c(SCC(=O)c2cc(C)c(C)cc2C)n[nH]c1=O | 4% | 4 | -12 | 1.2 | 1
O=[N+]([O-])NC1=NCN(Cc2ccco2)CN1Cc1ccco1 | -1% | -6 | 1 | 0.9 | -3
CNC(=S)N/N=C/c1cn(Cc2ccc(F)cc2)c2ccccc12 | / | -3 | 8 | -0.8 | -27
CC(C)C(NS(=O)(=O)c1cccc2nsnc12)C(=O)NC1CCCCC1 (centres undefined) | / | / | -8 | 4.4 | /
Cc1ccc(CN(C(=O)c2ccco2)C(C(=O)NC2CCCC2)c2cccnc2)cc1 (centres undefined) | -3% | 1 | -7 | 4.0 | /
Cc1nc(C(C)N(C)Cc2nc(-c3ccc4c(c3)OCO4)no2)c(C)s1 (centres undefined) | -1% | 6 | -4 | -2.1 | /
COCC(O)CSc1c([N+](=O)[O-])nc(C)n1Cc1ccc(OC)c([N+](=O)[O-])c1 (centres undefined) | 3% | 8 | -15 | 2.6 | -30
CCN1CCCC1CNC(=O)c1cn(C)c2ccc(S(=O)(=O)N3CCCCCC3)cc2c1=O (centres undefined) | -11% | -7 | / | / | -31
COc1ccccc1C(=O)NC(=O)COC(=O)c1cccc(C)c1O | / | / | 6 | -2.2 | /
O=C(COc1ccccc1C(=O)O)Nc1nc2ccc([N+](=O)[O-])cc2s1 | -1% | / | -1 | -5.1 | /
CN1CCN(C/C(=C2/N=C(c3ccccc3)OC2=O)N(C)C)CC1 | -6% | -1 | 0 | 0.1 | -32
COc1cc2c(cc1OC)C(NNC(=O)c1ccc(Br)o1)=NC(C)(C)C2 | / | / | 1 | -0.6 | /
COCCCNC(=O)Cn1cnc2sc(C)c(S(=O)(=O)N3CCN(c4ccccc4OC)CC3)c2c1=O | / | / | -8 | -1.1 | /
Cc1cc(C)c(NC(=O)Cn2nnc(C(=O)NCCc3ccccc3)c2N)c(C)c1 | / | / | 1 | 0.0 | /
Cc1nc(Nc2cnc(/C=C/c3cc(C(=O)Nc4cccc(C(F)(F)F)c4)ccc3C)cn2)cc(N2CCNCC2)n1 | / | / | 34 | 4.4 | /
CCCSc1nnc2nc3c(nn12)c1ccccc1n3C | -8% | 5 | 8 | -0.4 | -10 | Arbovirus anti repeat=3
Cc1cccc(NC(=O)c2cc(S(=O)(=O)N3CCCC3)cn2C)c1 | / | / | 0 | -1.6 | /
Cc1ccccc1NC(=O)Nc1ccccc1C(N)=O | 3% | 7 | -6 | -1.4 | /
COc1ccccc1C(=O)c1c(C)c(CCC#N)n2ccccc12 | / | / | 0 | 1.2 | /
Cc1ccc(N(C(=O)c2csnn2)C(C(=O)NC(C)(C)C)c2cccs2)cc1 (centres undefined) | 0% | -1 | -10 | 1.7 | 1
Cc1noc(/C=C/N(C)C)c1S(=O)(=O)N1CCCC(C(=O)Nc2ccc(F)cc2F)C1 (centres undefined) | / | / | 4 | -3.2 | /
C#CC(C)(CC)NC(=O)Cn1nnc(-c2cccc(C(F)(F)F)c2)n1 (centres undefined) | 4% | -5 | -9 | -1.3 | /
Cc1ccn2c(C=O)c(-c3ccc(F)cc3)c(C=O)c2c1 | -7% | -16 | -1 | / | /

Structures above containing an aryl thioether with sulfur outside any ring:
SMILES | Mtb growth | Arbovirus anti | Mtb betalactam | RecA intein inh | YopH PTP inh | others
O=c1cc(CSc2nnc(C3CC3)n2Cc2ccccc2)nc2sccn12 | 0% | -3 | -2 | -0.6 | /
O=C(CSc1ncnc2c1nnn2Cc1ccccc1)NC1CCCC1 | 11% | 16 | -7 | 13 | /
CCCn1c(SCC(=O)c2cc(C)c(C)cc2C)n[nH]c1=O | 4% | 4 | -12 | 1.2 | 1
COCC(O)CSc1c([N+](=O)[O-])nc(C)n1Cc1ccc(OC)c([N+](=O)[O-])c1 (centres undefined) | 3% | 8 | -15 | 2.6 | -30
CCCSc1nnc2nc3c(nn12)c1ccccc1n3C | -8% | 5 | 8 | -0.4 | -10 | Arbovirus anti repeat=3

Other compounds follow:
SMILES | Mtb growth | Arbovirus anti | Mtb betalactam | RecA intein inh | YopH PTP inh | others
CSC1=NCCN1C(=O)c1ccco1 | -12% | -3 | 2 | 1.4 | -49 | Arbovirus anti repeat=-2
O=C(c1cccs1)N1CCN(c2ncccn2)CC1 | -3% | 9 | -7 | 1.5 | -13
CCC(CC)NC(=O)Cc1ccc(F)cc1 | -6% | 8 | -4 | 12 | /
CCOc1ccc(NC(=O)CCN2C(=O)c3ccccc3C2=O)cc1 | / | / | 20 | -1.5 | /
CC(C)n1c(SCc2cc(=O)[nH]c3ccccc23)nc2c1c(=O)n(C)c(=O)n2C | 10% | / | 9 | 0.0 | /
Fc1ccccc1CNc1ncnc2sccc12 | / | / | 6 | -2.1 | /
CSc1ccc(CNC(=O)c2ccc(NC(=O)C3=CSCCO3)cc2)cc1 | / | / | 96 | -7.7 | /
O=C(NCCc1ccccc1F)C1CCC(=O)N(Cc2ccc(Cl)cc2)C1 (centres undefined) | / | / | -3 | 2.5 | /
COc1cc(C(Nc2ccc3c(c2)OCO3)C(=O)NC2CCCCC2)cc(OC)c1OC (centres undefined) | -2% | -1 | 0 | 4.5 | -7
Cc1cc(C)c2c(N)c(C(=O)NN3CC(=O)N(c4ccccc4F)CC3=O)sc2n1 | 6% | 1 | -5 | -27 | -24
Cc1ccccc1N1CCN(Cc2c(C#N)c3ccccc3n2C)CC1 | 1% | 4 | ? | 1.0 | -23
COC(=O)C1C(=O)NC(SC)=C(C#N)C1c1ccccc1F (centres undefined) | -6% | -2 | ? | -2.4 | 23
CCOC(=O)C(NC(=O)c1ccccc1)(Nc1cc(C)on1)C(F)(F)F (centres undefined) | -4% | 0 | 2 | -0.9 | -32
C=CCOC(=O)C1=C(C)OC(N)=C(C#N)C1c1c(C)nn(-c2ccccc2)c1Cl (centres undefined) | -3% | -1 | -5 | 11 | -8
COc1ccc(/C=C/C(=O)Nc2ccc3nc4n(c(=O)c3c2)CCCC4)cc1 | 3% | -8 | 1 | -2.6 | /
COc1ccc(C2N(c3cc(C)on3)C(=O)C3CCCN32)cc1OC (centres undefined) | -3% | 1 | -7 | -0.4 | -24
CCS(=O)(=O)C1=NN2C(=N)/C(=C\c3ccc(OC(=O)c4ccco4)c(OC)c3)C(=O)N=C2S1 | / | / | 4 | 25 | /
CCN(CC)c1ccc(C=C(c2nnnn2-c2ccc(C)cc2)c2nnnn2-c2ccc(C)cc2)cc1 | -2% | -13 | 1 | / | -12
O=C(CNC(=O)c1cccs1)N/N=C/c1c(F)cccc1Cl | / | / | -12 | -0.2 | /
NC(=O)COC(=O)CNC(=O)c1ccc(Cl)cc1 | -2% | -3 | 6 | -0.8 | -3
CC1(C)Cc2c(sc(NC(=O)C(=O)N3CCN(CCO)CC3)c2C(N)=O)CO1 | / | / | ? | -1.0 | /
CCC(=O)N1CCC2(CC1)Oc1ccc(F)cc1C(=O)C21CC(c2ccccc2)=NO1 (centres undefined) | 11% | / | 6 | 0.6 | /
O=C(c1ccc(CS(=O)(=O)Cc2ccc(Cl)cc2)o1)N1CCCC1 | -1% | 5 | -5 | -1.1 | -35
Cc1ccc(NC(=O)C(NC2CCCc3ccccc32)c2ccccc2)c([N+](=O)[O-])c1 (centres undefined) | 15% | -3 | 76 | 2.4 | -6
Cc1cc(C)c2c(N)c(C(=O)Nc3ccc(C)c(C)c3)sc2n1 | / | / | 3 | -140 | /

Next part
SMILES | Mtb growth | Arbovirus anti | Mtb betalactam | RecA intein inh | YopH PTP inh | others
C/C(=N\NC(=O)c1ccccc1O)c1ccc(Br)s1 | ? | -7 | / | -4.0 | -28
CCc1cccc(CC)c1NC(=O)COC(=O)c1ccc(F)c(S(=O)(=O)N(CC)CC)c1 | -9% | -6 | 6 | -0.9 | -39
CC(=O)c1cccc(NC(=O)NC2CCCCCCC2)c1 | / | / | 100 | 2.5 | /
O=C(NNC(=S)Nc1ccccc1Cl)c1ccccc1Cl | / | / | 0 | -0.4 | /
COC(=O)c1ccc(CSc2ccc3nnc(-c4ccc(F)cc4)n3n2)o1 | 2% | 4 | 10 | 6.3 | /
Cc1cccc(N(CC(=O)NC2CCCCC2)C(=O)Cn2nnc(-c3ccc(C)o3)n2)c1 | 3% | -9 | -4 | -3.0 | /
CN(c1ccccc1)S(=O)(=O)c1cccc(C(=O)NCCc2c[nH]c3ccccc23)c1 | / | / | 12 | 11 | /
COc1ccc(C(=O)NC(=S)NCCO)cc1Br | 8% | 5 | 14 | 1.0 | -3
C=CCOC(=O)CCC(=O)Nc1cc(OC)nc(OC)n1 | -4% | 16 | -5 | -0.7 | 1
CN(C(=O)CCNC(=O)Cn1cnc2ccccc2c1=O)c1ccccc1F | / | / | -6 | -6.3 | /
O=C(CNC(=O)C(c1ccccc1)c1ccccc1)N/N=C/c1ccc(O)cc1O | 12% | / | -2 | 8.7 | /
Cc1cc(N/C=C\c2nnnn2-c2ccccc2)no1 | 5% | -7 | 2 | 1.0 | 5
